Screens as filed in PubChem.
KCNQ2 enhance = potentiators of rat KCNQ2 potassium channel; B-score at 10 µM; 310,000 compounds, 0.54% hits; CHO-K1 KCNQ2, FluxOR thallium flux fluorescence; hits give high values; Potassium voltage-gated channel subfamily KQT member 2 (Rattus norvegicus), O88943;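 active means fluorescence ratio B-score at least 3 SD of library B-scores, with initial fluorescence B-score within 3 SD, cut at about 5.3 in these data; same plate scores as AID 2156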;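 further: B-score of peak minus minimum over baseline fluorescence ratio after K+ and Tl+ stimulus; positive B-score means potentiation of KCNQ2 with more thallium influx and brighter signal; only the inactives scoring about 0 or higher are listed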
Target sequence (O88943 whole entry, looked up): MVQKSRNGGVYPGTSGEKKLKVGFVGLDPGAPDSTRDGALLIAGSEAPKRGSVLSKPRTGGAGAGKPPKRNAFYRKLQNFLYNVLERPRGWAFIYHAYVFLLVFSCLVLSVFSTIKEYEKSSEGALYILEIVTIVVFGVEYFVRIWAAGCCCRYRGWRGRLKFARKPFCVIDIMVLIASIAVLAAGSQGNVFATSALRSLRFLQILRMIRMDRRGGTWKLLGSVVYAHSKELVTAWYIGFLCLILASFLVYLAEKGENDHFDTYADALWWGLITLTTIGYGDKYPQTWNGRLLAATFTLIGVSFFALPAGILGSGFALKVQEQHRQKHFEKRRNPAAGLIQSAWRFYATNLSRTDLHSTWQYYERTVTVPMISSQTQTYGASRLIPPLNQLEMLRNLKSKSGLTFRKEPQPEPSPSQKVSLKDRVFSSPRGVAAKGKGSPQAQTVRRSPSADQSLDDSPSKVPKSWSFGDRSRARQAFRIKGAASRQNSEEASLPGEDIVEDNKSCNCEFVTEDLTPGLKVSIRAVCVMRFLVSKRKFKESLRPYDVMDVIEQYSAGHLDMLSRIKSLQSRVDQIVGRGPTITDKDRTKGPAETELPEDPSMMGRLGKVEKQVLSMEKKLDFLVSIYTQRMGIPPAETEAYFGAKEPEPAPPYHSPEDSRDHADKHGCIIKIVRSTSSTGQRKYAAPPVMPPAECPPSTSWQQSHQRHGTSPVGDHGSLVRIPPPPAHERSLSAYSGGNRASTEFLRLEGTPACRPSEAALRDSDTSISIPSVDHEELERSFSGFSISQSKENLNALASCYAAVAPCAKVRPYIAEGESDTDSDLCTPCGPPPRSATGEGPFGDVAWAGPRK
KCNQ2 enhance baseline = also measured in KCNQ2 enhance; calls as there; B-score; compound at 10 µM; measured here: initial fluorescence intensity artifact check;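 brightness before thallium and not channel activity; 0 = typical well and far values either way flag optical interference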
* = called active by the depositor. The list is partial; count on the stated rates, not on these rows.

O=C(CSc1ncnc2c1oc1ccccc12)Nc1nc2ccccc2s1 was read as KCNQ2 enhance 1.09 and KCNQ2 enhance baseline -0.54.
Screening CCC(=O)N1CCc2cc(Br)cc(S(=O)(=O)N3CCCCCC3)c21 returned KCNQ2 enhance 0.11 and KCNQ2 enhance baseline 0.19.
COc1ccc(C(=O)N/C(=C\c2ccccc2)C(=O)NC(CC(C)C)C(=O)O)cc1 (stereo unspecified) was read as KCNQ2 enhance 1.44 and KCNQ2 enhance baseline 0.08.
`O=C(CSc1ncnc2c1oc1ccccc12)Nc1cccc(F)c1` gave KCNQ2 enhance 3.5 and KCNQ2 enhance baseline -2.42.
Screening CCCCc1ccc(NC(=O)NCc2ccccn2)cc1 returned KCNQ2 enhance 0.09 and KCNQ2 enhance baseline 0.67.
Cc1c(NC(=O)CSc2nnnn2-c2ccc(C(=O)O)cc2)c(=O)n(-c2ccccc2)n1C was read as KCNQ2 enhance 0.6 and KCNQ2 enhance baseline -2.01.
`COc1ccc(C(=O)NNC(=S)NC2CCCCC2)cc1OC` gave KCNQ2 enhance 2.6 and KCNQ2 enhance baseline -2.39.
For CCCOC(=O)CN1C(=O)c2ccccc2C1=O the results were KCNQ2 enhance 0.01 and KCNQ2 enhance baseline 0.75.
For CCCn1c(SCC(N)=O)nc2c(c1=O)C1(CCCC1)Cc1ccccc1-2 the results were KCNQ2 enhance 2.91 and KCNQ2 enhance baseline -0.58.
`Cc1csc(NC(=O)c2cc([N+](=O)[O-])cc([N+](=O)[O-])c2)n1` gave KCNQ2 enhance 4.51 and KCNQ2 enhance baseline 1.06.
For COc1cc(C(=O)OCCNC(=O)c2ccccc2)cc(OC)c1OC the results were KCNQ2 enhance 0.65 and KCNQ2 enhance baseline -0.9.
`Cc1nc2c(Cl)cccc2c2c1CC(CBr)O2` (stereo unspecified) gave KCNQ2 enhance 0.94 and KCNQ2 enhance baseline -1.01.
For CC(C)c1nnc(SCC(=O)NC2CCCCC2)n1C the results were KCNQ2 enhance 0.84 and KCNQ2 enhance baseline 1.15.
Screening Cc1ccc2nc(SCC(=O)NCCc3ccccc3)nc(=O)n2c1 returned KCNQ2 enhance 0.47 and KCNQ2 enhance baseline 0.03.
Screening COc1ccc(-n2c(=S)[nH]c(=O)c3cccnc32)cc1 returned KCNQ2 enhance 1.56 and KCNQ2 enhance baseline -0.15.
Screening CS(=O)(=O)Nc1ccc(C(=O)N2CC(=O)Nc3ccccc32)cc1 returned KCNQ2 enhance 2.01 and KCNQ2 enhance baseline 0.83.
`Cc1ccc(/C=N/NC(=O)c2ccco2)s1` gave KCNQ2 enhance 0.48 and KCNQ2 enhance baseline -0.12.
`Cc1ccc(C(=O)N/C(=C/c2cccnc2)C(=O)N2CCCCCC2)cc1` gave KCNQ2 enhance 0.77 and KCNQ2 enhance baseline -0.74.
`COc1ccc2c(c1)CC1c3c(cc4c(c3-2)OCO4)CC[N+]1(C)[O-]` (stereo unspecified) gave KCNQ2 enhance 0.99 and KCNQ2 enhance baseline 0.58.
O=C(NCCn1cc(SCc2ccc(F)cc2)c2ccccc21)c1c(F)cccc1F was read as KCNQ2 enhance 0.27 and KCNQ2 enhance baseline -0.63.
CCn1c(COc2cccc3cccnc23)nnc1SC(F)F was read as KCNQ2 enhance 0.17 and KCNQ2 enhance baseline 0.49.
`O=C(CCSc1ccc(Cl)cc1)NCc1ccncc1` gave KCNQ2 enhance 0.41 and KCNQ2 enhance baseline -1.39.
For CCOC(=O)Nc1ccc2c(c1)nc(CN1CCN(C(C)=O)CC1)n2C the results were KCNQ2 enhance 0.16 and KCNQ2 enhance baseline 1.32.
For O=C(c1nc2ccccn2c1CNCCOc1cccnc1)N1CCOCC1 the results were KCNQ2 enhance 0.99 and KCNQ2 enhance baseline -1.12.

Grouped by structure, those above containing fluorine (three)
`O=C(CSc1ncnc2c1oc1ccccc12)Nc1cccc(F)c1` gave KCNQ2 enhance 3.5 and KCNQ2 enhance baseline -2.42.
O=C(NCCn1cc(SCc2ccc(F)cc2)c2ccccc21)c1c(F)cccc1F was read as KCNQ2 enhance 0.27 and KCNQ2 enhance baseline -0.63.
CCn1c(COc2cccc3cccnc23)nnc1SC(F)F was read as KCNQ2 enhance 0.17 and KCNQ2 enhance baseline 0.49.

(next part)
Screening CC(C)C12CN3CCN(CC(C3)/C1=N\NC(=O)Nc1ccccc1)C2 returned KCNQ2 enhance 0.97 and KCNQ2 enhance baseline 0.43.
N#Cc1cncc(C#Cc2ccccc2)c1 was read as KCNQ2 enhance 1.46 and KCNQ2 enhance baseline -0.63.
Screening Cc1cc(OC(C)C(=O)NNC(=O)Nc2ccc(F)cc2F)cc(C)c1Cl (stereo unspecified) returned KCNQ2 enhance 7.5* and KCNQ2 enhance baseline -0.85*.
`COc1cccc(NC(=O)C(C)SCc2ccccc2)c1` (stereo unspecified) gave KCNQ2 enhance 0.63 and KCNQ2 enhance baseline 1.44.
For CN(C(=O)C1CCN(S(=O)(=O)c2cccc3nonc23)CC1)C1CCCCC1 the results were KCNQ2 enhance 1.16 and KCNQ2 enhance baseline -0.56.
CC(=O)Nc1c2c(nn1-c1ccccc1)CSC2 was read as KCNQ2 enhance 0.7 and KCNQ2 enhance baseline -0.21.
For Cc1ccc(SCCCn2cnc3ccccc3c2=O)cc1 the results were KCNQ2 enhance 0.25 and KCNQ2 enhance baseline 0.1.
Screening Cc1nc(C(F)(F)F)ccc1C(=O)Nc1ccc(C(F)(F)F)cn1 returned KCNQ2 enhance 0.7 and KCNQ2 enhance baseline 1.79.
Cc1ccc(Cl)c(OCC(=O)Nc2ccccc2C(=O)NC2CC2)c1 was read as KCNQ2 enhance 1.43 and KCNQ2 enhance baseline 0.91.
`O=C(N/N=C/c1ccncc1)/C(=C/c1ccccc1)NC(=O)c1ccccc1` gave KCNQ2 enhance 0.77 and KCNQ2 enhance baseline -0.32.
`O=S(=O)(c1ccccc1S(=O)(=O)N1CCCCC1)N1CCCCC1` gave KCNQ2 enhance 0.01 and KCNQ2 enhance baseline 1.13.
COCCNC(=O)c1onc(CSc2cccc(OC)c2)c1C(=O)O was read as KCNQ2 enhance 1.52 and KCNQ2 enhance baseline -2.2.

The last 2 entries of the section above lead into the next:
`O=S(=O)(c1ccccc1S(=O)(=O)N1CCCCC1)N1CCCCC1` gave KCNQ2 enhance 0.01 and KCNQ2 enhance baseline 1.13.
COCCNC(=O)c1onc(CSc2cccc(OC)c2)c1C(=O)O was read as KCNQ2 enhance 1.52 and KCNQ2 enhance baseline -2.2.
`Cc1cc(Cl)ccc1NC(=O)NC1CCN(S(=O)(=O)c2ccc(F)cc2)CC1` gave KCNQ2 enhance 0.26 and KCNQ2 enhance baseline -2.27.
Screening CCN(C(=O)CSc1nc2ccccc2c(=O)n1C(C)COC)C1CCS(=O)(=O)C1 (stereo unspecified) returned KCNQ2 enhance 0.05 and KCNQ2 enhance baseline 0.62.
For O=C(NC1(C(F)(F)F)NC(=O)N(c2ccc(F)cc2)C1=O)c1cccs1 (stereo unspecified) the results were KCNQ2 enhance 1.07 and KCNQ2 enhance baseline -2.25.
`O=C(Nc1ccnc(-c2ccncc2)n1)C1CC1` gave KCNQ2 enhance 0.76 and KCNQ2 enhance baseline -0.61.
Screening CCC(=O)Nc1ccc(C(=O)CSc2nnc(-c3ccc(NS(C)(=O)=O)cc3)n2C)cc1OC returned KCNQ2 enhance 0.69 and KCNQ2 enhance baseline -2.01.
`O=C(CCl)N=c1sccn1Cc1ccc(Cl)cc1Cl` gave KCNQ2 enhance 0.49 and KCNQ2 enhance baseline -1.6.
`COc1ccc2[nH]cc(S(=O)(=O)c3ccc(C(C)C)cc3)c(=O)c2c1` gave KCNQ2 enhance 0.46 and KCNQ2 enhance baseline -2.33.
`COCCNC(=O)CSCc1c(F)cccc1Cl` gave KCNQ2 enhance 1.41 and KCNQ2 enhance baseline 0.
`Cc1ccc(Cc2cnc(NC(=O)c3ccco3)s2)cc1` gave KCNQ2 enhance 0.34 and KCNQ2 enhance baseline 1.7.
Screening Cc1cnc(C)c(N2CCC(C(=O)NC(C)c3cccs3)CC2)n1 (stereo unspecified) returned KCNQ2 enhance 0.22 and KCNQ2 enhance baseline 0.09.
Screening COc1ccc(/C=C2\C(=O)NC(=S)N2C(=O)c2ccc(C)cc2)cc1 returned KCNQ2 enhance 2.78 and KCNQ2 enhance baseline -2.15.
`N=C(c1cccc([N+](=O)[O-])c1)N1CCCCC1` gave KCNQ2 enhance 0.69 and KCNQ2 enhance baseline 0.69.
`COc1ccc(NC(=O)CN(C)CC(=O)Nc2sc3c(c2C(N)=O)CCC3)cc1` gave KCNQ2 enhance 0.44 and KCNQ2 enhance baseline -0.14.
For Cc1nn(-c2ccccc2)c(=S)n1-c1ccccc1 the results were KCNQ2 enhance 2.23 and KCNQ2 enhance baseline 0.55.
For Cc1nn(Cc2ccccc2)c(C)c1NC(=O)c1cccs1 the results were KCNQ2 enhance 2.87 and KCNQ2 enhance baseline -0.78.
Screening CC(=O)c1ccc(N2CCN(CC3CCCCC3)CC2)cc1 returned KCNQ2 enhance 0.41 and KCNQ2 enhance baseline 0.36.
Fc1ccc(F)c(CN2CCN(c3ncccn3)CC2)c1 was read as KCNQ2 enhance 0.02 and KCNQ2 enhance baseline 0.83.
Screening COCCNS(=O)(=O)c1ccc2c(c1)oc(=O)c1cc(S(=O)(=O)NCCOC)ccc12 returned KCNQ2 enhance 0.79 and KCNQ2 enhance baseline -0.57.
CCC1CCCCN1C(=O)CSc1nnc(-c2ccc(OC)cc2)o1 (stereo unspecified) was read as KCNQ2 enhance 0.52 and KCNQ2 enhance baseline 1.87.
For Fc1ccccc1NC(=S)N1CCN(c2ccccn2)CC1 the results were KCNQ2 enhance 0.19 and KCNQ2 enhance baseline -0.54.
For Cc1ccc(C)c(S(=O)(=O)N2CCN(CC(=O)Nc3ccc4c(c3)CCC4)CC2)c1 the results were KCNQ2 enhance 2.7 and KCNQ2 enhance baseline 0.04.
For CC(Oc1ccc(Cl)cc1Cl)C(=O)NN=C1CCN(C)CC1 (stereo unspecified) the results were KCNQ2 enhance 0.08 and KCNQ2 enhance baseline -0.03.
`CCCCCCC(=O)Nc1ccc(C(=O)N2CCCC2)cc1` gave KCNQ2 enhance 0.21 and KCNQ2 enhance baseline 1.12.
Screening Cc1ccccc1NC(=O)CCC(=O)N/N=C/c1c[nH]c2ccccc12 returned KCNQ2 enhance 1.77 and KCNQ2 enhance baseline 2.83.
C=CCOc1ccc(-c2nc3c(c(=O)[nH]c(=O)n3CCCC)n2C)cc1OC was read as KCNQ2 enhance 0.88 and KCNQ2 enhance baseline 0.5.
Screening CC(C)NC(=O)c1ccc(OC2CSC2)cc1 returned KCNQ2 enhance 0.45 and KCNQ2 enhance baseline -2.14.
For Cc1nc2ccc(C(=O)O)cc2[nH]1 the results were KCNQ2 enhance 0.36 and KCNQ2 enhance baseline -0.14.
Screening NNC(=O)CCc1c[nH]c2ccccc12 returned KCNQ2 enhance 1.2 and KCNQ2 enhance baseline -0.42.
For O=C(c1ccc(C(=O)N2CCCCCC2)cc1)N1CCCCCC1 the results were KCNQ2 enhance 0.31 and KCNQ2 enhance baseline -0.05.
Screening COc1ccccc1-n1c(SCC(=O)N2CCOCC2)nc(O)cc1=O returned KCNQ2 enhance 0.35 and KCNQ2 enhance baseline -0.1.
`COc1ccccc1CNC(=O)CN(C)S(=O)(=O)c1ccc(Br)s1` gave KCNQ2 enhance 0.38 and KCNQ2 enhance baseline -0.08.
Cc1cc(C)c2c(=O)[nH]n(C3CCOC(C)(C)C3)c2n1 (stereo unspecified) was read as KCNQ2 enhance 0.79 and KCNQ2 enhance baseline -0.88.
`C/C=C(\C)C(=O)Nc1cccc(C2=NOC3(C2)C[C@H](C(N)=O)N(C(=O)CC#N)C3)c1` (stereo partly specified) gave KCNQ2 enhance 0.93 and KCNQ2 enhance baseline 0.14.
`CCOC(=O)c1n[nH]c2ccccc12` gave KCNQ2 enhance 1.32 and KCNQ2 enhance baseline -1.88.
`Cc1occc1C(=O)N1CCN(c2ccc(Cl)cc2)CC1` gave KCNQ2 enhance 1.45 and KCNQ2 enhance baseline -1.23.
COc1ccc(/C=N/n2c(C)cc(C)cc2=O)cc1 was read as KCNQ2 enhance 0.62 and KCNQ2 enhance baseline -0.06.
CN(CCCNC(=O)C1CCC(=O)N1Cc1ccc(F)cc1)c1ccccc1 (stereo unspecified) was read as KCNQ2 enhance 0.61 and KCNQ2 enhance baseline 0.34.
Screening CC(C)n1cc(/C=C2\NC(=O)N(c3cccc(Cl)c3)C2=O)c2ccccc21 returned KCNQ2 enhance 0.36 and KCNQ2 enhance baseline 1.11.
`CCc1c(C)sc(NC(=O)c2cc(C3CC3)on2)c1C#N` gave KCNQ2 enhance 2.51 and KCNQ2 enhance baseline -2.61.
O=C(Nc1cc(C(=O)N2CCOCC2)ccc1N1CCCC1)c1cccs1 was read as KCNQ2 enhance 1.74 and KCNQ2 enhance baseline -0.62.
`CC(=O)Nc1ccc(C(=O)COC(=O)CCN2C(=O)C3CC=CCC3C2=O)cc1` (stereo unspecified) gave KCNQ2 enhance 0.66 and KCNQ2 enhance baseline -0.43.
`Cc1cc(N2CCCCC2)n2ncc(-c3ccc(Cl)cc3)c2n1` gave KCNQ2 enhance 1.54 and KCNQ2 enhance baseline -0.73.
Screening CC(C)C(NC(=O)OC(C)(C)C)C(=O)N1CCCC1C(=O)NC(Cc1ccccc1)C(N)=O (stereo unspecified) returned KCNQ2 enhance 1.02 and KCNQ2 enhance baseline -0.85.
For O=C(Nc1ccc(F)c(Cl)c1)N1CCCCCC1 the results were KCNQ2 enhance 0.7 and KCNQ2 enhance baseline -1.33.
Cn1nc(-c2ccccc2)cc1NC(=O)c1ccccc1 was read as KCNQ2 enhance 1.21 and KCNQ2 enhance baseline 0.01.

Already shown: an excerpt of the list.
Screening CC(C)NC(=O)c1ccc(OC2CSC2)cc1 returned KCNQ2 enhance 0.45 and KCNQ2 enhance baseline -2.14.
For Cc1nc2ccc(C(=O)O)cc2[nH]1 the results were KCNQ2 enhance 0.36 and KCNQ2 enhance baseline -0.14.
